Bioassay records as filed in PubChem.
NPYLR7 agonist – activates Aedes aegypti NPYLR7 receptor; HEK293T NPYLR7/Galpha15, GCaMP6s calcium fluorescence; activation, % at 10 µM; actives 0.15% (n = 270,000); AID 1259423; in the data active = activation above about 40%;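 note: 0% = vehicle and 100% = reference agonist at the receptor; some compounds past the cut are filed as inactive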
NPYLR7 agonist max-min – further read-out of NPYLR7 agonist, marked with its call; activation, %; measured here: Max-Min RFU normalised activation; some inactives read as strong as hits;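 span of the calcium signal over five minutes; 0% = vehicle and 100% = native peptide agonist; compound fluorescence can raise it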
Active calls of the source: *; & = joins results of further samples. Not all compounds are listed. The share of hits here may be higher or lower than overall.

SMILES,NPYLR7 agonist,NPYLR7 agonist max-min
Cn1c(O)c(N=Nc2ccccc2[N+](=O)[O-])c2ccccc21,1,-1
N#Cc1cnn2c(C(F)(F)F)cc(-c3ccccc3)nc12,3,1
CCCc1cncnc1N1CCN(Cc2cccn2-c2ncccn2)CC1,32,20
COCCN(CC(=O)N(CCc1ccccc1)Cc1ccc(C)o1)Cc1ccccc1F,-3,-1
Cc1nonc1C(=O)N1CCC(c2cc(C(C)C)n[nH]2)CC1,0,1
O=S(=O)(C1=Cc2ccccc2C1)c1ccccc1,8,1
CCCCCCn1c(N2CCN(CC(N)=O)CC2)nc2c1c(=O)[nH]c(=O)n2C,-1,14
Cc1c(C)n2c3c(=O)n(Cc4cccc(Cl)c4)c(=O)n(C)c3nc2n1Cc1ccco1,5,4
COCCNC(=O)Cn1nc2c(c1NC(=O)c1cccc(F)c1)CSC2,-4,3
O=C(CSc1nc2ccsc2c(=O)[nH]1)Nc1c(F)cccc1F,7,6
Cc1cc(C)c(/C=C2\SC(=S)N(CC(=O)O)C2=O)c(C)c1,0,-5
CN(Cc1ccncc1)C(=O)c1oc2ccccc2c1CS(C)=O (stereo not given),-1,-1
CCCCOc1ccc(NC(=O)c2c(-c3ccccc3Cl)noc2C)cc1,4,2
COC(=O)CC1(CS(=O)(=O)NC2CCc3cc(F)ccc32)CC1 (stereo not given),1,0
CC(=O)NC1CCCN(C(=O)c2c(C)noc2C(C)C)C1 (stereo not given),9,2
Cc1ccc2nc(NC(=O)CSc3ccc4nnc(-c5ccccc5)n4n3)sc2c1,3,30
CCCN(Cc1nccn1C)C(=O)c1cccc(C2CCNC2)c1 (stereo not given),5,4
O=C1c2cc(S(=O)(=O)N3CCCCC3)ccc2-c2ccc(S(=O)(=O)N3CCCCC3)cc21,0,-2
COC(=O)C1C(=N)Oc2c(oc(CO)cc2=O)C1c1ccc(C(F)(F)F)cc1 (stereo not given),-1,-3
Cn1c(=O)n(CCN2CCCCC2)c(=O)c2c1nc1n2CCN1c1cccc(Cl)c1,0,-5
NS(=O)(=O)c1cc([N+](=O)[O-])ccc1NCc1cccnc1,20,9
COc1ccccc1Oc1cc(C)nc(SCc2ccccc2C#N)n1,3,9
O=C(NCCNC(=O)C1CCN(S(=O)(=O)c2ccccc2)CC1)c1ccccc1,14,26
O=C(c1ccc2oc(CCc3ccccc3)nc2c1)N1CCC(O)CC1,-2,-4
Cc1ccc2nc(-c3cccc(C)n3)c(NC(C)(C)CC(C)(C)C)n2c1,7,9
O=c1[nH]ncc(N2CCCC(c3nc4ccccc4s3)C2)c1Cl (stereo not given),-2,-3
C=CCc1cc(C(=O)N2CCN(C)C3(CCN(C)CC3)C2)ccc1OC,-6,-7
CCC(C)N(Cc1ccc(N(CC)CC)cc1OS(=O)(=O)c1ccc(OC)cc1)C(=O)c1cccs1 (stereo not given),4,6
CCOC(=O)c1ccccc1NC(=O)CSc1ccc2nnc(-c3ccc(C)cc3)n2n1,4,24
Cc1cc(C)n(CCC(=O)N(C)Cc2cc(C(C)(C)C)n[nH]2)c(=O)n1,3,-1
c1ccc(-c2nccn2CCc2cccs2)nc1,-6,3
COc1ccccc1OCC(=O)NC1CCCCC1NC(=O)COc1ccccc1OC (stereo not given),-5,-10
O=C(NCC1CCCO1)c1cccn2c(=O)c3c4c(sc3nc12)CCCC4 (stereo not given),10,3
CCOC(=O)CCC(=O)Nc1cc(-c2ccco2)nn1-c1ccc(C(F)(F)F)cc1,22,22
Cc1ccc(C(=O)N(CC(=O)Nc2cc(C(C)(C)C)nn2-c2ccccc2Cl)CC(C)C)cc1[N+](=O)[O-],16,21
CCc1c(C(=O)NCCc2nc(C)cc(=O)[nH]2)csc1C,1,-1
CC(C1CC1)N(CC(F)(F)F)C(=O)Cn1ccccc1=O (stereo not given),12,8
CC(=O)N1CCc2cc(S(=O)(=O)N3c4ccccc4CC3C)ccc21 (stereo not given),2,0
Cc1nc(SCc2cc(=O)n3cc(Br)ccc3n2)n(C2CCCC2)c1C,4,0
O=C1NCCN(C(=O)c2cn[nH]n2)C1Cc1ccccc1 (stereo not given),4,3
COc1ccccc1-c1cccc(-c2cccc(NC(=O)c3ccc(C(F)(F)F)cc3F)c2)n1,-5,-8
COC(=O)/C=C/c1ncn(C)c1CC=C(C)C,-8,-12
Cc1ccc(C)c(C2=NN(C(=O)CN3CCOCC3)C(c3ccc(Cl)cc3)C2)c1 (stereo not given),3,4
CCOc1ccsc1C(=O)N1CCC2(CC1)CC(C(=O)OC)c1ccccc12 (stereo not given),1,26
COc1ccc(CC(=O)Nc2cc(F)ccc2C)c(OC)c1,9,10
COc1ccc(OC)c(CN(C(=O)CC2=CCNCC2)C2CCCC2)c1,-4,-5
CCn1ccnc1CN1CCc2c([nH]c3ccccc23)C1C(C)(C)C (stereo not given),4,3
CN(CCC(=O)Nc1ccccc1C#N)C1CCc2ccccc21 (stereo not given),-1,0
Cc1[nH]nc(CCC(=O)N2CCCC(c3ccn[nH]3)C2)c1C (stereo not given),6,3
CCN1CCN(C(=O)CCC2CCN(C(=O)CCc3c(C)nn(C)c3C)CC2)CC1,3,2
Cn1c(=O)[nH]c2nc(-c3ccccc3)[nH]c2c1=O,-7,-15
CN(C)CCCNC(=O)c1nnc2n(c1=O)CCN2c1ccccc1,0,-1
Cc1nn(C)c(C)c1C(NC(=O)Nc1ccccc1N1CCN(C)CC1)C(F)(F)F (stereo not given),12,9
Cc1c(C(=O)NCc2ccco2)sc(=O)n1Cc1ccc(S(C)(=O)=O)cc1,8,3
CCCC(=O)N1CCC1(C)C(=O)Nc1cccc(OC)c1 (stereo not given),7,2
CC(C)c1ccccc1OCc1nc(CN(C(=O)C2CCCC2)C2CC2)cs1,20,8

Carrying on:
SMILES,NPYLR7 agonist,NPYLR7 agonist max-min
CCOc1ccc(-n2c(C(C)N(CCc3ccccc3)C(=O)Nc3ccc(Cl)cc3)nc3ccccc3c2=O)cc1 (stereo not given),-3,-2
COc1ccc(NC(=O)CCc2nccs2)cc1Br,7,5
O=C(COc1cccc(Cl)c1)N1CCN(c2nccc(-c3ccc(N4CCOCC4)cc3)n2)CC1,13,25
CCn1c(C)cc(C(=O)Cn2cnc3c2c(=O)n(C)c(=O)n3C)c1C,9,12
CC(=O)c1sc(NC(=O)c2cccc(Oc3ccccc3)c2)nc1C,-3,-7
Cc1ccc(NC(=O)CC(=O)NCCS(=O)(=O)N2CCCC2)c(C)c1,7,5
CN(C)S(=O)(=O)c1ccc(C(=O)Nc2nnc(-c3ccc4c(c3)OCCO4)o2)cc1,-1,-3
CC(=O)c1cc(CN2CCOC(CCCc3ccccc3)C2)cs1 (stereo not given),0,-5

3 compounds picked at random from those above, as already listed:
SMILES,NPYLR7 agonist,NPYLR7 agonist max-min
O=C1c2cc(S(=O)(=O)N3CCCCC3)ccc2-c2ccc(S(=O)(=O)N3CCCCC3)cc21,0,-2
CC(=O)c1sc(NC(=O)c2cccc(Oc3ccccc3)c2)nc1C,-3,-7
CCn1c(C)cc(C(=O)Cn2cnc3c2c(=O)n(C)c(=O)n3C)c1C,9,12

A second format for part of the listing above:
Order of values – NPYLR7 agonist	NPYLR7 agonist max-min
CCOc1ccc(-n2c(C(C)N(CCc3ccccc3)C(=O)Nc3ccc(Cl)cc3)nc3ccccc3c2=O)cc1 (stereo not given)
    -3	-2
COc1ccc(NC(=O)CCc2nccs2)cc1Br
    7	5
O=C(COc1cccc(Cl)c1)N1CCN(c2nccc(-c3ccc(N4CCOCC4)cc3)n2)CC1
    13	25
CCn1c(C)cc(C(=O)Cn2cnc3c2c(=O)n(C)c(=O)n3C)c1C
    9	12
CC(=O)c1sc(NC(=O)c2cccc(Oc3ccccc3)c2)nc1C
    -3	-7
Cc1ccc(NC(=O)CC(=O)NCCS(=O)(=O)N2CCCC2)c(C)c1
    7	5
CN(C)S(=O)(=O)c1ccc(C(=O)Nc2nnc(-c3ccc4c(c3)OCCO4)o2)cc1
    -1	-3

Later entries
SMILES,NPYLR7 agonist,NPYLR7 agonist max-min
CN(Cc1cccc(C(=O)Nc2ccnn2C)c1)Cc1cc(C2CC2)n[nH]1,14,16
CCc1ccc(NC(=O)C(CC)Sc2ncc(S(=O)(=O)c3ccc(C)cc3)c(=O)[nH]2)cc1 (stereo not given),-8,-11
O=C1NN(c2ccccc2)C(=O)C2C3C=CC(C4CC34)C12 (stereo not given),2,1
CCCc1cc(C(=O)N2CC[C@@H](c3sccc3C)[C@H](O)C2)no1,-1,-4
COc1ccccc1NC(=O)Nc1cc(Cl)ccc1C,-5,-6
CCOC(=O)N1CCC(NC(=O)c2cc(COc3ccc4c(c3)CCCC4)on2)CC1,10&1,3&3
CSc1ccccc1OCc1cc(C(=O)N(C)Cc2cc(C)[nH]n2)no1,-5,-6
Cn1c(=O)oc2cc(C(=O)CSCC(=O)Nc3ccc4ccccc4c3)ccc21,-5,-6
O=C(Nc1ccc(N2CCC(NCCC3=CCCCC3)CC2)cc1)c1ccc2c(c1)OCO2,4,-1
Cc1ccc(C(=O)Nc2cccc(CS(=O)(=O)C(C)(C)C)c2)cn1,16,14
CC(=O)NC(=O)CSc1nnc(Nc2cccc(Cl)c2C)s1,0,-1
Cc1ccc(-c2c(Nc3ccccc3)oc3c2c(=O)n(C)c(=O)n3C)cc1,-6,-8
C(#Cc1ccc2nnc(-c3ccccc3)n2c1)c1ccccc1,-11,-9
O=C(C1CCCC1)N1CCCC(OCc2ccc(C(F)(F)F)cc2)C1 (stereo not given),-8,-2
Cn1c(SCC(=O)N2CCc3ccccc32)nc2ccsc2c1=O,5,5
CCC(C)NC(=O)c1oc2ccccc2c1COC (stereo not given),-6,-8
Cc1csc2nc(CN3CCCC3c3cccs3)cc(=O)n12 (stereo not given),0,5
CCC(CC)C(=O)N(Cc1cccc(F)c1)Cc1cc(NC(=O)CC(C)(C)C)ccc1N(C)C,21,12
Cc1ncsc1C(=O)N1CCOc2ccc(C(F)(F)F)cc21,4,0
Cc1ccc(NC(=O)c2cc([N+](=O)[O-])ccc2Cl)cc1N1CCCCC1=O,8,2
CCOC(=O)CNC(=O)N1CCN(c2cc(Oc3ccc(C)cc3OC)ncn2)CC1C (stereo not given),-8,-2
CC(C)c1ccccc1N1C(=O)CSC1c1ccccc1NC(=O)c1cccc([N+](=O)[O-])c1 (stereo not given),5,10
COc1ccc(-c2cc(C(=O)N3CC4(C)CC3CC(C)(C)C4)c(C)n2-c2ccccc2Cl)cc1 (stereo not given),1,12
CSc1ncc(CNCCc2ccc(C)cc2)c(N2CCCC(C)C2)n1 (stereo not given),7,8
CCc1ccc(C(=O)N(CC2CCCO2)c2nc3ccccc3s2)cc1 (stereo not given),6,2
Cc1cccc(-n2nc(CC#N)c(C#N)c2N)c1,6,3
COCCN(Cc1csc(COc2cc(C)cc(C)c2)n1)C(=O)c1ccc2c(c1)OCO2,13,21
C=c1[nH]/c(=C\c2ccc(Br)cc2)c(=O)o1,4,-10
O=C(NCCc1nnc2ccc(SCc3ccccc3F)nn12)c1ccccc1,10,2
CC(=O)N1CCCN(CC[C@H]2CN(C(=O)C(C)(C)C)CC[C@H]2CC(=O)O)CC1,-8,-11
NC(=O)C(CCCN=C(N)N)NC(=O)c1ccccc1 (stereo not given),-8,-3
COc1ccc(C2CC(=O)C3=C(C2)N=C(C)C(C(=O)OC2CCCC2)C3c2cccnc2)cc1 (stereo not given),-12,-19
COc1cccc(-c2nnc(SCc3ccc(C(=O)N4CCN(C)CC4)cc3)n2-c2ccc(F)cc2)c1,9,13
COc1ccccc1N1CCN(C(=O)c2cc3nc(-c4ccc(Br)cc4)cc(C(F)(F)F)n3n2)CC1,2,2
CCOC(=O)c1cc(C(=O)Nc2ccc(Br)cc2)nn1C,3,0
CC(=NNC(=S)NC(C)C)c1ccncc1,5,3
COCC(=O)Nc1ccc(-n2nc(OCC(C)C)nc2-c2cccc(C(F)(F)F)c2)cc1,-4,1
COC(=O)c1sccc1NS(=O)(=O)c1ccccc1Cl,1,-1
Cc1cccc(N(CC(=O)NCc2n[nH]c3c2CCC3)S(C)(=O)=O)c1,2,-2
c1ccc(C2CSCCN2c2nc3ccccc3o2)cc1 (stereo not given),12,8
O=C(CN1CCCC(C(F)(F)F)C1)c1c[nH]c(C(=O)N2CCCC2)c1 (stereo not given),1,0
C=C(C)Cn1c(=O)c2c(nc3n2CC(C)=NN3Cc2ccc(C)cc2)n(C)c1=O,5,10
Clc1ccc2nc(-c3cccs3)cn2c1,-3,-4
O=c1[nH]c2ccccc2n1C1=CCN(c2nccc(N3CCC(O)C3)n2)CC1 (stereo not given),-2,13
Cc1cc(CN(C)c2ccc(-c3nc(C(C)C)no3)cn2)on1,5,2
COc1cc(NC(=O)c2nc3n(n2)C(C(F)F)CC(C)N3)cc([N+](=O)[O-])c1 (stereo not given),-15,-16
CCOC(=O)C1(Cc2ccccc2C)CCCN(C(=O)c2cccnc2SC)C1 (stereo not given),1&6,-3&8
Cc1cc(=O)oc2cc(OCC(=O)NC3CCC4CCCCC4C3)ccc12 (stereo not given),6,4
COc1ccc(-c2cc(C(=O)N3CCN(C(C)=O)CC3)n3nc(-c4ccccc4)cc3n2)cc1,-2,3
Cc1cccc(C(C2Sc3nc(C)nn3C2=O)N2CC(C)CC(C)C2)c1 (stereo not given),-3,-3

Already shown: entries from further up.
SMILES,NPYLR7 agonist,NPYLR7 agonist max-min
COc1ccc(-c2cc(C(=O)N3CCN(C(C)=O)CC3)n3nc(-c4ccccc4)cc3n2)cc1,-2,3
Cc1cccc(C(C2Sc3nc(C)nn3C2=O)N2CC(C)CC(C)C2)c1 (stereo not given),-3,-3
